Screens: PubChem BioAssay, National Center for Advancing Translational Sciences (NCATS)
HPGD inh = blocks human HPGD enzyme activity; hit rate 4.3% among 150,000; P15428; Potency, µM, for inactives: at the top dose activity change, negative = inhibition, most hits filed as inhibitors; purified HPGD, NADH fluorescence kinetic, PGE2 substrate; active = well fitted inhibition curve with a large enough effect (not every such curve was filed as active); inconclusive = small, poorly fitted or top-dose-only effect, or another doubt; inactive = no such curve, though single readings can be large or run the other way;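 note: top concentration of the series not given in the record; plate controls included wells without enzyme; inactives centre near -10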
Target sequence (P15428 whole entry, looked up): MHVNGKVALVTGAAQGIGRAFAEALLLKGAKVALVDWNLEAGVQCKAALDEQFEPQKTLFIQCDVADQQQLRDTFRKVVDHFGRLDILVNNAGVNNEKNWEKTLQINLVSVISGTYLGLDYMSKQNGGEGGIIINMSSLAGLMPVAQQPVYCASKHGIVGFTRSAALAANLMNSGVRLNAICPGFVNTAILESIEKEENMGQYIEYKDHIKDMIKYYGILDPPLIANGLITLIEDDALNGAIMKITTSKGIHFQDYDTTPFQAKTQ
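20 nM HPGD preincubated 15 min at room temperature with compound in 50 mM Tris-HCl pH 8, 0.01% Tween 20. Started with 1 mM NAD+ and 30 uM prostaglandin E2; NADH fluorescence (360/450 nm) read 5 times over 30-s intervals, last minus first.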
The depositor's hits bear a star; ? = inconclusive; ! = a repeat was not active. % is set by controls: 0 for no effect and ±100 for the full control effect; potency is the fitted concentration of half-maximal effect. These rows are one share of the data, so the mix of outcomes need not match the whole.

SMILES	HPGD inh
Cc1onc(-c2ccccc2)c1C(=O)Nc1nnc(N(C)Cc2ccccc2)s1	-7.1%
Cc1nc2ccccc2c2oc(C(=O)NCCCN3CCC(C)CC3)cc12	-9.3%
Cc1ccc(Oc2ccc(-c3nc(N)nc(N)n3)cc2)cc1C	?
Cc1ccc(-n2c(SCC(=O)NCc3ccc4c(c3)OCO4)nnc2-c2cccnc2)c(C)c1	-8.6%
Cc1ccc(-c2nnc(CSc3nc4cc5c(cc4cc3C)OCO5)o2)cc1	17.8µM*
O=S(=O)(c1ccc(S(=O)(=O)N2CCN3CCCC3C2)cc1)N1CCCC1 (stereo not drawn)	-2.3%
O=C(Cc1ccc(-n2cccc2)cc1)NCc1ccccc1Cl	-9.3%
Cc1cccc(C(=O)Nc2oc(-c3ccccc3)cc2C#N)c1	-24.6%
COC(=O)C(C)Sc1nnc(-c2ccncc2)o1 (stereo not drawn)	-5.9%
CC(C)(C)Nc1nc(OCC(F)(F)F)nc(OCC(F)(F)F)n1	-2.6%
Cn1c(=O)n(C)c2cc(NS(=O)(=O)c3ccc4c(c3)CCCC4)ccc21	-2.1%
CCOC(=O)c1c(NC(=O)CSc2nnc(Cc3ccccc3)o2)sc(C)c1C	-21.2%
CC(C)(C)c1ccc(O)c(CN(Cc2cc(C(C)(C)C)ccc2O)C2CCCCC2)c1	-12.4%
O=C(Nc1ccc(Cl)c(Cl)c1)OCc1cnc(Cl)s1	-6.8%
COC(=O)C1=NNC2(c3ccc(Cl)cc3)C(=O)N(c3ccccc3)C(=O)C12 (stereo not drawn)	-3.1%
C=CCNC(=S)NCc1cccnc1	-12.8%
CCOC(=O)/C=c1\s/c(=C\c2ccc(-c3ccccc3)cc2)c(=O)n1CC(=O)NCc1ccc2c(c1)OCO2	23.7%
COc1ccc(C(=O)Nc2ccc(NC(=O)c3ccco3)c(Cl)c2)cc1OC	?
COC(=O)c1ccc2c(c1)N(Cc1cc(C)ccc1C)C(=O)c1ccccc1S2=O (stereo not drawn)	1.3%
COc1cc(NC(=O)c2ccco2)c(OC)cc1NC(=O)Nc1ccccc1Cl	?
O=c1cnc2cnc(Oc3ccccc3)nc2n1Cc1cccs1	-12.3%
O=C1N2CCSC2=NC1(Nc1nccs1)C(F)(F)F (stereo not drawn)	-9.6%
CC(C)(C)C(=O)NC(NC(=S)Nc1sc2c(c1C#N)CCCC2)C(Cl)(Cl)Cl (stereo not drawn)	?
O=C(COc1ccccc1O)N1CCN(C(=O)c2ccco2)CC1	-3.0%
O=C(NCc1ccco1)c1cccc(Nc2nc3ccc(Br)cc3[nH]2)c1	-22.3%
O=C1C2C3C=CC(C3)C2C(=O)N1c1cccc(N2C(=O)C3C4C=CC(C4)C3C2=O)n1 (stereo not drawn)	-1.9%
Cc1ccc(C(C(=O)NC(C)(C)C)N(C(=O)c2csnn2)c2ccccc2F)o1 (stereo not drawn)	-11.3%
CC(=O)Nc1ccc(/C=N/NC(=O)c2cc3ccccc3nc2C)cc1	-22.8%
CC(=O)Nc1c(O)[nH]c2ccccc12	-8.4%
O=C(N/N=C/c1coc2ccccc2c1=O)c1cn(-c2ccccc2)nc1-c1ccccc1	-15.1%
CCCCCC(O)c1cccc(OCc2ccc3ccccc3n2)c1 (stereo not drawn)	14.1µM*!
OCCN(Cc1ccccc1)CC1CC=CCC1 (stereo not drawn)	-5.9%
CN1CCN(CCCNC(=O)c2cn(C3CCCCC3)c(=O)c3c2c2ccccc2n3C)CC1	?
NS(=O)(=O)c1ccc(NC(=O)CSc2nnc(Cc3cccs3)n2-c2ccccc2)cc1	-11.5%
O=C(c1cc2c(cc1Br)OCCCO2)N1CCCCC1	2.24µM*
CCOC(=O)CCN(Cc1sccc1C)S(=O)(=O)c1ccc(F)cc1	-5.6%
CN(C(=O)COC(=O)c1ccccc1Nc1ccccc1)C1CCS(=O)(=O)C1 (stereo not drawn)	-5.9%
CC(C)OC(=O)c1cc2ccccc2oc1=O	-27.3%
NC(=S)N=Nc1c(O)[nH]c2cc(F)c(F)cc12	-17.0%
COc1ccc(S(=O)(=O)n2nc(OC(=O)c3cccs3)cc2N)cc1	-31.2%

Brought forward from above: 2 entries; new compounds follow.
SMILES	HPGD inh
NC(=S)N=Nc1c(O)[nH]c2cc(F)c(F)cc12	-17.0%
COc1ccc(S(=O)(=O)n2nc(OC(=O)c3cccs3)cc2N)cc1	-31.2%
COC(=O)C1(C(F)(F)F)N=C(C(F)(F)F)Nc2ccc(Cl)cc21 (stereo not drawn)	-19.1%
O=C(NCc1nnc(SCc2ccccc2)n1-c1ccccc1)C12CC3CC(CC(C3)C1)C2	-5.0%
Cc1ccc(CNC(=O)C2CNc3cc(C)ccc3O2)cc1 (stereo not drawn)	-22.1%
CCOCc1cnc(C)nc1NCC(=O)c1c(C)[nH]c2ccccc12	-15.1%
COc1ccc(N/C(=N/c2nc(C)cc(C)n2)NC(=O)Nc2ccc(Cl)c(Cl)c2)c(OC)c1	-4.3%
CCCCN(C)CCC(=O)Nc1ccc(F)c(F)c1	-0.2%
CCOc1cc(/C=C/c2ccc3cccc([N+](=O)[O-])c3n2)cc(Cl)c1O	-19.0%
O=S(=O)(Nc1ccc2c(c1)OCCO2)c1cnc[nH]1	-10.9%
Cc1c(C)[n+](=O)c(-c2cccs2)c(C)n1[O-]	-12.3%
CN1CCc2c(cc(O)c(O)c2Cl)C(c2cccc(Cl)c2)C1 (stereo not drawn)	7.1%
O=S(=O)(c1ccc2ccccc2c1)N1CCN(C2CCN(Cc3ccccc3)CC2)CC1	-1.7%
CC1CCN(S(=O)(=O)c2ccc3ccccc3c2)CC1	-17.6%
S=c1[nH]nc(-c2ccc3ccccc3n2)n1-c1ccccc1Cl	10µM*
c1cc2c(cc1C1CCCN1)OCCCO2 (stereo not drawn)	-10.7%
COc1ccc(N(CC(=O)NC2CCCCCC2)S(=O)(=O)c2c(C)nn(C)c2C)cc1	-1.5%
CCNC(=S)NNC(=O)c1cc(Br)cs1	-22.9%
c1ccc(-c2csc3ncnc(-n4cnc5ccccc54)c23)cc1	?
COC(=O)c1ccc(CSc2nc3ccccc3c(=O)n2-c2ccc(OC)c(OC)c2)o1	-16.6%
O=C(NCCCn1ccnc1)Nc1ccc(Cl)c(Cl)c1	5.2%
CCC(C)(C)n1nnnc1C(c1ccc2ncccc2c1)N1CCCC(C)C1 (stereo not drawn)	-12.5%

Given field by field: four of the compounds above.
> Cc1c(C)[n+](=O)c(-c2cccs2)c(C)n1[O-]
  HPGD inh = -12.3%
> CN1CCc2c(cc(O)c(O)c2Cl)C(c2cccc(Cl)c2)C1 (stereo not drawn)
  HPGD inh = 7.1%
> O=S(=O)(c1ccc2ccccc2c1)N1CCN(C2CCN(Cc3ccccc3)CC2)CC1
  HPGD inh = -1.7%
> CC1CCN(S(=O)(=O)c2ccc3ccccc3c2)CC1
  HPGD inh = -17.6%

Next part.
SMILES	HPGD inh
O=C(CSc1cn(CCNC(=O)c2ccc3ccccc3c2)c2ccccc12)NCc1ccco1	-27.4%
CC(C)NC(=O)CC(=O)N/N=C/c1ccccc1F	-5.4%
CCOCCCNC(=O)c1c(C)[nH]c(C(=O)OCC)c1C	-21.4%
Cc1cccc(NC(=S)N2CCC(N(C)CC3CCCO3)CC2)c1C (stereo not drawn)	-7.7%
O=C1C(C=NCc2ccncc2)=C(O)c2ccccc21	-11.1%
COc1ccc(C(=O)N2CCN(C(=O)c3ccco3)CC2)cc1	-12.5%
COc1ccccc1-n1cnc2cc(NS(=O)(=O)c3ccc(Br)cc3)ccc21	?
COc1ccc(/C=C/C(=O)c2ccccc2)cc1COc1ccccc1F	-26.4%
O=C(O)C1Cc2ccccc2CN1C(=O)c1ccccc1Cl (stereo not drawn)	-4.4%
COc1cc(-c2noc(-c3ccco3)n2)cc(OC)c1OC	-5.8%
Cc1ccc(S(=O)(=O)NC(N)=NCCc2ccc(Cl)cc2)cc1C	-17.2%
Brc1ccc2ncnc(Nc3ccc(N4CCOCC4)cc3)c2c1	-7.3%
O=C1C2C3c4ccccc4C(c4ccccc43)C2c2nc3ccccc3n21 (stereo not drawn)	-5.2%
CCCn1c(SCc2ccccn2)nc2c1c(=O)n(C)c(=O)n2C	-8.7%
CCN(CC)S(=O)(=O)c1cccc(C(=O)N[C@H](C(=O)OCC(=O)Nc2ccccc2)C(C)C)c1	-7.4%
COc1ccc(S(=O)(=O)N2CCC(C(=O)N3CCc4ccccc4C3)CC2)cc1Cl	?
CC1CCN(C(=O)CN2C(=O)c3ccccc3S2(=O)=O)CC1	-14.1%
N#Cc1ccc(OCCN2C(=O)NC3(CCSC3)C2=O)cc1 (stereo not drawn)	-11.3%
CCCNC(=O)Cn1c(=O)/c(=C\c2ccc(-c3cccc([N+](=O)[O-])c3)o2)s/c1=C\C(=O)C(C)(C)C	-12.8%
CCC(C(=O)N1CCOCC1)n1c(C(=O)OC)cc2occc21 (stereo not drawn)	-8.1%
CCC(C)(C)NC(=O)/C=C/c1ccc(OC)c(S(=O)(=O)N2CCOCC2)c1	-5.3%
CC1CCCC(NC(=O)COC(=O)c2ccc(S(=O)(=O)N3CCOCC3)cc2)C1C (stereo not drawn)	-13.4%
O=C(Cc1csc(Nc2nc(=S)[nH]c3ccccc23)n1)NCc1ccccc1Cl	-18.6%
CCOc1ccc(C(C)=O)cc1CN1C(=O)NC2(CCCCC2C)C1=O (stereo not drawn)	-7.4%
CCOCCOC(=O)c1ccc(NC(=O)c2cc(OC)c(OC)c(OC)c2Br)cc1	-4.0%
Cc1ccn2cc(CNS(=O)(=O)c3ccc(Cl)s3)nc2c1	-7.4%
CC(=O)Nc1ccc(S(=O)(=O)N2CCN(Cc3cccnc3)CC2)cc1	0.1%
CCC(C)(c1ccc(C(=O)OC)s1)c1ccc(C(=O)OC)s1	?
COC(=O)Nc1ccc(S(=O)(=O)N(C)CC(F)(F)C(F)F)cc1	-15.1%
COc1cc(C(=O)NC(=S)NC(C)C)cc(OC)c1OC	-7.9%
C#CCOCCOCCOCCNc1nc(N2CCN(C(=O)Cn3cc(CCCCN)nn3)CC2)nc(N2CCN(C(=O)[C@H](C)n3cc(CCCN=C(N)N)nn3)CC2)n1	-5.7%
COc1cccc(-n2c(Cc3cc(=O)[nH]c(=O)[nH]3)nnc2SCC(=O)N2CCCCCC2)c1	-24.9%
CC(=O)c1cn(CC(=O)NCc2ccc3c(c2)OCO3)c2ccccc12	-9.8%
CCOc1ccccc1C(=O)N1CCN(c2cccc(Cl)c2)CC1	-3.0%
Cc1ccc(-c2csc3ncnc(-n4nnc5ccccc54)c23)cc1	0.1%
Cc1ccc(C)c(OCC(=O)Nc2ccc(S(=O)(=O)N3CCN(C)CC3)cc2)c1	-9.9%
c1ccc(Cc2ccc(OCCn3cncn3)cc2)cc1	-7.4%
CC(C)Sc1nnc(Nc2ccccc2)s1	-22.1%
CCn1c(/C=C/Nc2ccccc2)[n+](CC)c2ccc(C(=O)OCC(F)(F)F)cc21	-9.6%
Cc1ccc(CN/C=C/C(=O)c2ccc(Br)cc2)cc1	?
Cc1ccccc1C(=O)NNC(=O)C(=O)Nc1cccc(Cl)c1C	-13.1%
CCN(CCNC(=O)C1CCN(c2nnc(-n3cccc3)s2)CC1)c1ccccc1	-6.0%
CCOC(=O)C1(C)NC(c2ccccc2F)C2C(=O)N(c3cccc(C(C)=O)c3)C(=O)C21 (stereo not drawn)	-2.1%
CC(=O)N/C(=C\c1ccccc1)C(=O)NCC(=O)O	5.9%
O=C(Cn1cnc([N+](=O)[O-])n1)NCc1ccccc1	-7.9%
CC(C)c1ccc(C(O)c2cnc(C(C)C)n2C)cc1 (stereo not drawn)	-6.5%
CCCCCCCCCCS(=O)(=O)N/N=C/c1ccc(O)cc1	-25.2%
Cn1cc(/C=C2\SC(=S)N(NC(=O)c3ccccc3)C2=O)c2ccccc21	-7.3%
Cc1cc2cc(CCNC(=O)c3c(-c4ccccc4Cl)noc3C)c(=O)[nH]c2cc1C	-13.4%
Cc1ccc(C2=NNC(c3ccc(Cl)cc3)=Nc3ccccc32)o1	-6.4%
CN(CCC#N)C(=S)Nc1ccc(Oc2ccccc2)cc1	-7.6%
O=c1c(N2CCOCC2)nsn1Cc1ccccc1	-8.7%
O=C(NCCOc1ccccc1)c1cncc(Br)c1	-1.1%
O=C(Oc1ccccc1N1C(=O)CCC1=O)c1ccco1	0.3%
O=C(O)CCCNc1cc(N2CCC3(CC2)OCCO3)c2noc3c2c1C(=O)c1ccccc1-3	-29.5%
Cc1cc(C)c(NC(=O)NC(=O)c2ccc(F)cc2)c(C)n1	-2.1%
Cc1nc2cc(NC(=O)N3CCCCC3)ccc2n1C	-21.6%
Cc1ccc(C)c(N2CCN(C(=O)c3cc(S(=O)(=O)N4CCOCC4)ccc3F)CC2)c1	-15.3%
Cc1sc2nc3n(c(=O)c2c1C)NC(=O)CC3	-13.2%
Cc1ccc(C(=O)N/N=C2\CCc3ccccc32)c(C)c1	-20.3%

The listing continues:
SMILES	HPGD inh
O=C(O)c1ccc2c(c1)C(=O)N(c1ncccn1)C2=O	-4.1%
COc1cc(COc2ccc3c(C)c(Cc4ccccc4)c(=O)oc3c2C)cc(OC)c1OC	?
Cc1ccc2cc3cc(C(=O)N4CCCCCC4)oc3nc2c1	?
COc1ccc(S(=O)(=O)N(CC(=O)N/N=C/c2cccs2)c2cc(C)cc(C)c2)cc1OC	-13.4%
CC(=O)c1c(N=CN(C)C)nc(C)nc1-c1ccccc1	-5.5%
Cc1ccc2nc(NC(=S)NC(=O)c3ccc(OC(C)C)cc3)sc2c1	10µM*
O=C(NCc1ccccc1)c1ccc(Br)o1	12.6µM*
CCc1nccn1S(=O)(=O)c1cc(C)c(OC)cc1C	7.2%
CCN(CC)S(=O)(=O)c1ccc(Cc2ncc(C(F)(F)F)cc2Cl)s1	-17.5%
